PINK1 modulator: A Quantitative High throughput Screen to Identify Chemical Modulators of PINK1 Expression. Potency, µM (doses to about 76.6 µM), without a hit: top-dose activation (PINK1 increase), usual class: activators. PINK1 immunofluorescence, high-content cytometry, 24 h. 410,000 tested, 0.2% active; active = well fitted activation curve with a large enough effect; inconclusive = small, poorly fitted or top-dose-only effect; inactive = flat fitted curve, though single readings scatter; cell line not stated here;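 note: potency is the fitted concentration of half-maximal effect; % of control where 0% means no effect; nearly all actives have a fitted effect of over 65% in size; a mitochondrial uncoupler was the plate control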
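Stable cell line treated 24 h with compounds at 5 concentrations (CCCP controls), then fixed and immunostained for PINK1 plus nuclear and cell stains; PINK1 immunofluorescence quantified by laser-scanning microplate cytometry.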
TRPML1 blocker: qHTS for Inhibitors of the Human Mucolipin Transient Receptor Potential 1 (TRPML1); Mucolipin-1 (Homo sapiens), Q9GZU1; TRPML1-inducible cells, Ca2+ dye fluorescence, FDSS; active compounds read low; inhibition of EC80 agonist-evoked calcium signal; activity change, negative = inhibition, % (concentration not given with the values); 390,000 tested, 0.02% active; AID 624415, 2012; in the data active means activity change below about -50%; inconclusive means about -30% to -50%; inactive means above about -30%;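 note: stimulus is agonist 54-4 at its EC80 concentration; % is set by controls: 0 for no effect and ±100 for the full control effect; the text of the record puts the active cut at -80%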
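TRPML1-DL cells, Tet-induced overnight (~16 h, 37 °C) at 1,500 cells/well, were loaded with Ca8 no-wash dye plus quencher for 45-90 min at room temperature. Compounds were pinned during FDSS kinetic reading; agonist 54-4 at EC80 (4 uM final) then added.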
CtBP-E1A inh: qHTS Assay for Inhibitors of the CtBP/E1A Interaction | CtBP / adenovirus E1A interaction (AlphaScreen) | AlphaScreen GST-E1A/His-CtBP binding, 1536-well; active compounds read low; control for the full effect not named in the record | activity change, % (no concentration beside the values) | 340,000 tested, 0.49% active | AID 651724, 2012; in the data active means activity change below about -65%; inconclusive means about -30% to -65%; inactive means above about -30%; note: % is set by controls: 0 for no effect and ±100 for the full control effect
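AlphaScreen with 125 nM GST-E1A and 125 nM His-CtBP (5X stocks) in Tris pH 8.0, 300 mM NaCl, BSA, Tween 20, TCEP. Compounds preincubated 2 h at 37 deg C, then glutathione donor/nickel acceptor beads added for 1 h at 37 deg C in dark.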
Six1-Eya2 inh: qHTS Assay for Inhibitors of the Six1/Eya2 Interaction; AID 651725, 2012; AlphaScreen GST-Six1/His-Eya2 binding, biochemical; active compounds read low; control for the full effect not named in the record; Homeobox protein SIX1 (Homo sapiens) + Protein phosphatase EYA2 (Homo sapiens), …; activity change, % (test concentration not listed); 360,000 tested, 0.56% active; in the data active = activity change below about -65%; inconclusive = about -30% to -65%; inactive = above about -30%; note: % is set by controls: 0 for no effect and ±100 for the full control effect
Target sequence (O00167 whole entry, looked up): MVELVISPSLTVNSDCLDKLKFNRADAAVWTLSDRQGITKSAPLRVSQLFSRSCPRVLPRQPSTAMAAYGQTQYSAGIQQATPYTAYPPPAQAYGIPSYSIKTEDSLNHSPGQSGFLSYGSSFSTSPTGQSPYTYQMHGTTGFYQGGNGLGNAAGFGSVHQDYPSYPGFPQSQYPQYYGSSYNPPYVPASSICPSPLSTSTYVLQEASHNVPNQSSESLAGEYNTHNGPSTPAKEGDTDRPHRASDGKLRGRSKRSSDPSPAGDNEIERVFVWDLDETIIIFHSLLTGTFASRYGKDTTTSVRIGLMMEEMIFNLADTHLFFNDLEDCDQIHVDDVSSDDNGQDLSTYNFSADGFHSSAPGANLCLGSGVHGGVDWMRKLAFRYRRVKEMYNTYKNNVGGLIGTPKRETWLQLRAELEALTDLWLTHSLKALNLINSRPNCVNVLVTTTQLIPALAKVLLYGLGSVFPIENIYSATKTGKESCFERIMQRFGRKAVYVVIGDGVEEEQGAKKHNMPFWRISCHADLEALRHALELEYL
Target sequence (Q15475 whole entry, looked up): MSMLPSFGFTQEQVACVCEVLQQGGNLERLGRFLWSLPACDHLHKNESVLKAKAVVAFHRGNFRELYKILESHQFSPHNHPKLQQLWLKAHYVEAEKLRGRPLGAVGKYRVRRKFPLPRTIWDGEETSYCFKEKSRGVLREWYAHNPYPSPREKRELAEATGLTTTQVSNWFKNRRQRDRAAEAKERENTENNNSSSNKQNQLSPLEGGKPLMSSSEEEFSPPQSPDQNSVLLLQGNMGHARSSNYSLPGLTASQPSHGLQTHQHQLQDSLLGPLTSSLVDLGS
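Homogeneous AlphaScreen proximity assay pairing GST-Six1 with His-tagged Eya2 (added as 5X mix: 250 nM and 500 nM) in 50 mM Tris pH 8.0, 300 mM NaCl, 1 mM TCEP. Glutathione donor and nickel acceptor beads; 1 h, 37 °C, dark.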
TRPML1 agonist: qHTS for Agonists of the Human Mucolipin Transient Receptor Potential 1 (TRPML1); 410,000 tested, 0.12% active; TRPML1-expressing cells, Ca2+ dye fluorescence, FDSS; host cell line not named in the record; reference of the full effect not given here; activation, % (test concentration not listed); AID 624414, 2012; in the data active = activation above about 50%; inconclusive = about 30% to 50%; inactive = below about 30%; note: 0% is about no effect; the text of the record puts the active cut at 80%
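Agonist activity was taken from a 110 s kinetic Ca2+ dye read on the FDSS after pinning compounds onto TRPML1-DL cells. The cells were seeded at 1,500/well with Tet inducer, incubated about 16 h, then dye-loaded at room temperature.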
D2 agonist: Beta-Arrestin HTS for Positive Allosteric Modulators of the Human D2 Dopamine Receptor: Agonists. D(2) dopamine receptor (Homo sapiens), P14416. 360,000 tested, 0.084% active. DiscoveRx PathHunter D2 beta-arrestin, luminescence, 90 min; 100% = 57 uM dopamine signal. activation, % (test concentration not listed); in the data active = activation above about 40%; inconclusive = about 15% to 40%; inactive = below about 15%; note: compound concentration not given in the record; the text of the record calls up to 30% inactive
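Agonist mode: compounds alone added to overnight-plated D2 PathHunter cells for 90 min at 37 C, with 57 uM final dopamine (EC100) defining full response. Beta-arrestin recruitment detected by chemiluminescent reagent, read after 1 h at ambient temperature.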
Starred values were filed as active, the others as inactive; ? = inconclusive; nt = no result given; [ ] = another dose, or the depositor's remark. An unsorted share of the library; overall some 1% were active at least once.

SMILES	PINK1 modulator	TRPML1 blocker	CtBP-E1A inh	Six1-Eya2 inh	TRPML1 agonist	D2 agonist
CCOC(=O)c1sc(=S)n(-c2cc(F)ccc2F)c1N	-4.5%[38.3 µM]	8	-9	-14	1.2	0.7
Cc1ccc(-c2cc(C(=O)N3CCN(C(=O)c4ccco4)CC3)[nH]n2)c(C)c1	2.7%	3	0	-4	-0.1	-1.3
C[C@H](CO)N1C[C@H](C)[C@H](CN(C)S(=O)(=O)c2ccccc2)OCc2cnnn2CCCC1=O	0.2%	3	5	3	-0.3	-8.9
CCOc1ccc(NC(=O)COC(=O)Cn2nc(C)c([N+](=O)[O-])c2C)cc1OCC	2.4%	20	-10	5	0.3	-2.6
O=C(Cn1c(NCCO)nc2ccccc21)c1ccco1	3.2%[38.3 µM]	-17	16	2	0.8	-0.7
O=C(c1cccc(Cl)c1)n1nc(-c2cccnc2)nc1NCc1ccccc1	5.6%	-7	nt	nt	-0.6	nt
COc1ccc(CCNC(=O)Cn2nnc(C(=O)Nc3cccc(C)c3C)c2N)cc1OC	3.8%	-8	0	-3	-1.1	-0.5
S=C(NC1CCCCC1)N1CCOCCOCCN(C(=S)NC2CCCCC2)CCOCCOCC1	5.0%	-14	-11	2	21	6.0
Cc1cc(C(=O)Cn2cnc3ccccc3c2=O)c(C)n1C1CC1	-0.5%	2	-5	6	0.4	-4.4
COCCn1c(=S)[nH]c2ccccc21	2.1%	-6	-4	-1	0.2	4.6
Cc1ccccc1CN1CCc2c(OCC(=O)N3CCCCC3)cccc2C1=O	-0.9%	0	-5	-11	-1.2	-3.7
N#Cc1nc(-c2ccccc2Cl)oc1NCC1CCCO1 (stereo not given)	1.3%	-29	-14	-13	-0.3	1.3
Cc1ccc(NC(=O)CN2C(=O)C(c3ccccc3)=NC23CCCCC3)cc1C	1.7%	-8	nt	nt	1.0	nt
CCCN(CC1CC1)C(=S)NC(=O)c1ccc(S(=O)(=O)N2CCOCC2)cc1	1.1%	1	5	-5	0.1	-0.1
Cc1cc(C)c(NC(=O)CNC(=O)[C@@H]2CCCN2C(=O)c2cccs2)c(C)c1	3.0%	-3	6	3	-0.2	1.3
COc1ccc(S(=O)(=O)NC(C)C(=O)Nc2ccc3c(c2)OCO3)cc1OC (stereo not given)	-0.3%	-1	2	-16	0.4	-1.9
CC(C)N1C(=S)SC2CS(=O)(=O)C=C21 (stereo not given)	0.1%	3	-1	6	-0.7	1.3
C#CCN(C[C@H]1[C@H](OC(=O)NCc2ccccc2F)[C@H](OC(=O)NCc2ccccc2F)C[C@H]2C(=O)N(c3ccccc3)C(=O)[C@@H]12)S(=O)(=O)c1ccc(C)cc1	1.7%	24	-17	1	2.1	-7.9
CCC(c1nnnn1C(C)(C)C)N1CCN(c2cc(Cl)ccc2C)CC1 (stereo not given)	2.5%	61	-1	0	2.1	-2.5
Cc1cc(C)n2c(NCc3ccccc3)c(-c3cc4ccccc4o3)nc2n1	?	nt	4	2	-0.4	nt
COC(=O)c1ccccc1NC(=O)Nc1ccc2c(c1)OCO2	1.5%	1	5	0	-0.1	-2.3
CC1CC(C)CN(C(=O)c2nn(C)c3c2CS(=O)(=O)c2ccccc2-3)C1 (stereo not given)	-1.5%	-11	-4	11	-0.2	0.4
O=C1CCCC2=C1C(c1ccccc1)CC(=O)N2c1ccccc1 (stereo not given)	-0.9%	-1	10	6	0.2	2.4
Cc1ccc(NC(=O)CN(C)S(=O)(=O)c2ccc3c(c2)n(C)c(=O)c(=O)n3C)cc1C	-0.2%	4	nt	nt	0.4	nt
CCc1nn(CCCC(=O)N2CCN(c3cccc(C)c3C)CC2)c(=O)c2cc3occc3n12	1.2%	0	nt	-16	0.8	-3.1
CCOc1ccc(C(CC(=O)O)NC(=O)C(CC)c2ccccc2)cc1 (stereo not given)	0.1%	9	3	-1	0.1	4.0
O=C(NNc1c(Cl)cncc1Cl)c1sccc1Cl	1.3%	-14	7	0	0.1	-4.0
Cn1c(NCCCO)nc2c1c(=O)n(Cc1ccccc1F)c(=O)n2C	6.5%[38.3 µM]	-3	-16	-17	-0.7	0.5
N#Cc1c(/N=C/c2cccs2)sc2c1CCCCC2	0.7%	21	-29	?	0.8	1.0
O=C(O)/C=C/C(=O)N(Cc1ccc2c(c1)OCO2)C1CC(=O)N(CCc2ccccc2)C1=O (stereo not given)	0.0%	5	nt	7	0.3	1.3
CC(C)COc1ccc(C(=O)NCC2OCCc3ccccc32)cc1 (stereo not given)	6.1%	-2	nt	nt	1.8	nt
O=C(CCNC(=O)c1ccc(Br)cc1)NCC1CCCO1 (stereo not given)	-2.1%	-7	8	0	-0.4	-1.6
Cc1c(C(=O)N2c3ccccc3Sc3ccccc32)cccc1[N+](=O)[O-]	7.1%	-7	-22	0	0.9	-3.1
Cc1ccc(-n2nc(C(=O)Nc3ccc(C)c(F)c3)c(=O)n(C)c2=O)cc1	-0.5%	3	nt	nt	-0.8	nt
COC(=O)C1=C(CCc2ccccc2)NC(=O)NC1c1ccc(Br)cc1 (stereo not given)	1.2%	-19	-1	-4	-0.6	-0.1
Cc1c(NC(=O)CN2CCCC(C)C2)ccc2nsnc12 (stereo not given)	-0.6%	30	5	9	0.7	-2.6
CCOC(=O)N1CCN(C(=O)CSc2ccc(C(F)(F)F)cc2[N+](=O)[O-])CC1	-0.2%	8	-10	-10	-0.4	0.0
COc1cc2c(cc1OC)CN(CC(O)c1ccccc1)CC2 (stereo not given)	0.8%	13	-3	-6	0.4	-2.2
COc1ccccc1-c1nnc(SCC(=O)NC2CC2)n1C	-1.2%	-3	11	9	0.2	-1.9
CCOC(=O)C1CCN(C(=O)c2cc(S(=O)(=O)N3CCCCCC3)ccc2OC)CC1	1.7%	8	-22	4	-0.7	-2.7
O=C1/C(=C/Nc2cccc([N+](=O)[O-])c2)CCc2ccccc21	?	0	11	-15	1.2	0.6
CC(C)C(=O)c1cn(CC(=O)NCC2CCCO2)c2ccccc12 (stereo not given)	3.7%	-11	0	1	0.3	0.2
COc1ccc(NC(=O)c2cccc(N3C(=O)C4C5C=CC(C5)C4C3=O)c2)cc1 (stereo not given)	-0.5%	-12	0	2	0.4	-1.0
CCCCNC(=O)CCCCC(=O)N/N=C/c1ccccc1Cl	1.7%	39	6	2	1.5	0.2
COc1ccc(CCC(=O)NCCc2ccc(Cl)cc2)cc1	3.6%	8	3	-1	0.0	-1.1
Cc1nnc(NC(=O)CSc2ncc(-c3ccccc3)[nH]2)s1	0.7%	-8	2	5	0.7	-1.1
Cc1ccccc1C(=O)N(CC(=O)Nc1sc(C)c(C)c1C(N)=O)C1CCCC1	3.8%	2	0	-20	0.2	-8.1
COc1ccc2c(c1OC)C(=O)N(c1nc(SC)n[nH]1)C2=O	0.3%	18	-3	-17	-0.1	-4.8
CCCCNS(=O)(=O)c1ccc2nc(-c3cccnc3)cc(C(=O)NC3CCCC3)c2c1	6.2%	-2	6	3	1.2	2.7
CCOC(=O)/C(N=Nc1ccc(Cl)cc1)=C(/O)c1ccc([N+](=O)[O-])cc1	5.8%	11	-4	-12	0.7	2.9

Entries of single compounds, quoted from the list. Screens in order: PINK1 modulator | TRPML1 blocker | CtBP-E1A inh | Six1-Eya2 inh | TRPML1 agonist | D2 agonist
CC(C)C(=O)c1cn(CC(=O)NCC2CCCO2)c2ccccc12 (stereo not given) across the screens: 3.7% | -11 | 0 | 1 | 0.3 | 0.2
CCCCNC(=O)CCCCC(=O)N/N=C/c1ccccc1Cl across the screens: 1.7% | 39 | 6 | 2 | 1.5 | 0.2

Going on with the list:
SMILES	PINK1 modulator	TRPML1 blocker	CtBP-E1A inh	Six1-Eya2 inh	TRPML1 agonist	D2 agonist
CCOC(=O)Cn1nc(NC(=O)c2ccc(C(=O)OC)cc2)cc1C	4.2%	-3	0	0	0.3	-1.0
Cc1ccc(OCC(=O)NNC(=O)C2CCC2)cc1C	1.1%	4	-10	7	2.4	-4.8
O=C(NN=C(Cc1ccccc1)Cc1ccccc1)C1CC1	2.2%	-11	11	2	0.8	-3.2
CCCC(C)NC(=O)Cc1ccc(S(=O)(=O)N2CCOCC2)s1 (stereo not given)	2.3%	3	2	-1	0.6	-2.2
C#CCN1C=CC(=O)[C@@H](OC(=O)Nc2ccc(C)cc2)[C@H]1c1ccccc1Br	0.6%	17	-12	10	0.3	-6.6
NS(=O)(=O)c1ccc(NC(=O)COC(=O)c2ccc3c(c2)OCCO3)cc1	4.2%	9	20	1	-0.3	-1.9
Cc1cc2nc(-c3ccccc3)c(Cc3ccccc3)n2c(C)c1Br	?	-12	5	-11	-0.1	-6.2
COc1ccc(CNCCNC(=O)c2cccs2)cc1OC	-0.4%	9	11	-3	0.4	-1.2
COc1cc(C=O)c(Br)cc1OCC(=O)NCCc1ccccc1	-0.5%	-12	nt	1	-0.3	-2.0
C=CCc1cc(Cl)ccc1OC(=O)Nc1cccc(Cl)c1	11%	nt	12	2	nt	-3.5
CCC1=Nc2ccccc2-c2nnc(SC)nc2O1	-3.5%	2	-18	-21	-0.4	-0.1
CC(C)N(C)C1CCN(C(=O)Nc2ccc(Cl)c(Cl)c2)CC1	0.8%[38.3 µM]	-4	-3	3	0.2	-2.0
CCOC(=O)c1ccccc1NC(=O)CSc1nc2ccccc2o1	21%[38.3 µM]	-3	10	26	2.9	-0.1
CC1CCN(C(=O)Cn2ncc3c([nH]c4ccccc43)c2=O)CC1	4.1%	-2	3	1	-0.2	0.4
c1ccc(Nc2nc(-c3ccccc3)ns2)cc1	1.3%	1	9	0	-0.2	-3.5
O=C(CNC(=O)c1ccccc1F)Nc1ccc2c(c1)OCO2	-1.5%	6	-8	-7	-0.3	6.2
C=C(C)c1cccc(C(C)(C)NC(=O)NCc2cccnc2)c1	-0.3%	17	7	1	-1.3	-2.7
Cn1c(C(=O)Nc2ccccc2)cc2sccc21	1.9%	14	-8	-8	-1.2	-1.4
Cc1ccsc1-c1nc(CSCC(=O)N2CCN(c3ccccc3)CC2)c(C)o1	0.2%	-10	-6	0	2.6	2.6
Cc1cccc(OCC(=O)Nc2cc(C)on2)c1	-2.1%	13	-1	2	-0.5	-0.6
CSc1n[nH]c(=O)n1-c1cccc(Cl)c1	-2.6%	15	5	4	0.2	1.8
CCOc1cc(C(=O)NC(=S)Nc2cccnc2)cc(OCC)c1OCC	4.2%	2	-11	-7	2.7	-8.1

Individual results from the list:
Entry of Cn1c(C(=O)Nc2ccccc2)cc2sccc21 under PINK1 modulator: 1.9%
Entry of CCOc1cc(C(=O)NC(=S)Nc2cccnc2)cc(OCC)c1OCC under Six1-Eya2 inh: -7
Entry of c1ccc(Nc2nc(-c3ccccc3)ns2)cc1 under TRPML1 blocker: 1
